Assay outcomes from PubChem.
CtBP-E1A inh: blocks the CtBP interaction with E1A. AID 651724. activity change, % (concentration not given with the values). AlphaScreen GST-E1A/His-CtBP binding, 1536-well; hits give low values; control for the full effect not named in the record. 0.49% of 340,000 active; in the data active means activity change below about -65%; inconclusive means about -30% to -65%; inactive means above about -30%; also: % is scaled to controls: 0 for no effect and ±100 for the full control effect
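Steps: dispense buffer (Tris pH 8.0, NaCl 300 mM, TCEP 1 mM, BSA, Tween 20); add 5X protein mix (GST-E1A, His-CtBP, 125 nM each); pin 23 nL compound; 2 h at 37 °C, dark; add 5X beads (50 ug/mL); 1 h; read.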
Six1-Eya2 inh: Six1/Eya2 interaction inhibition; activity change, % (no concentration beside the values); AlphaScreen GST-Six1/His-Eya2 binding, biochemical; hits give low values; control for the full effect not named in the record; 0.56% of 360,000 active; AID 651725; Q15475+O00167; in the data active = activity change below about -65%; inconclusive = about -30% to -65%; inactive = above about -30%; also: % is scaled to controls: 0 for no effect and ±100 for the full control effect; compound concentration not given in the record
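GST-Six1 + His-Eya2 (5X stock: 250/500 nM); Tris pH 8.0, 300 mM NaCl, 0.05% BSA, 0.02% Tween 20; GSH donor/Ni acceptor beads; 1 h 37 °C dark; AlphaScreen readout.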
TRPML1 blocker: inhibitors of human TRPML1 channel | TRPML1-inducible cells, Ca2+ dye fluorescence, FDSS; hits give low values; inhibition of EC80 agonist-evoked calcium signal | Q9GZU1 | activity change, negative = inhibition, % (concentration not given with the values) | 0.02% of 390,000 active; in the data active means activity change below about -50%; inconclusive means about -30% to -50%; inactive means above about -30%;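 also: stimulus is agonist 54-4 at its EC80 concentration; % is scaled to controls: 0 for no effect and ±100 for the full control effect; compound concentration not given in the record; the text of the record puts the active cut at -80%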
Target sequence (Q9GZU1 whole entry, looked up): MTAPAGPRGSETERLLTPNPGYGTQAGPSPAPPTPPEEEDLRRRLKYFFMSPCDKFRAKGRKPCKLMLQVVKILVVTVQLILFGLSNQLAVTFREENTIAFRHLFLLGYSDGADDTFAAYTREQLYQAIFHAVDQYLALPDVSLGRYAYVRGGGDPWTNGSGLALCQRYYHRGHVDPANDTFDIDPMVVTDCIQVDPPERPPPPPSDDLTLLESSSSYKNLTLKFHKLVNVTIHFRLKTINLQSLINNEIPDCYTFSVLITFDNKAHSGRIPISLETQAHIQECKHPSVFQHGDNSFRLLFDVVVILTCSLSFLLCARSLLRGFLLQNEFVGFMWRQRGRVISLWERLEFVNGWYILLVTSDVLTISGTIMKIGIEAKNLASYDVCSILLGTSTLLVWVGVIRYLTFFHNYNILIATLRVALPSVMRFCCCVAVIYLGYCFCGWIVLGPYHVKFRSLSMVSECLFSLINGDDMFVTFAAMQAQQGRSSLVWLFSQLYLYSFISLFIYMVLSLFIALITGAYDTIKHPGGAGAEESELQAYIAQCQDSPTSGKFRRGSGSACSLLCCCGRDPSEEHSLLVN
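TRPML1-DL cells, Tet-induced overnight (~16 h, 37 °C) at 1,500 cells/well, were loaded with Ca8 no-wash dye plus quencher for 45-90 min at room temperature. Compounds were pinned during FDSS kinetic reading; agonist 54-4 at EC80 (4 uM final) then added.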
TRPML1 agonist: human mucolipin-1 channel agonism; Q9GZU1; TRPML1-expressing cells, Ca2+ dye fluorescence, FDSS; host cell line not named in the record; reference of the full effect not given here; activation, % (test concentration not listed); 0.12% of 410,000 active; AID 624414; in the data active = activation above about 50%; inconclusive = about 30% to 50%; inactive = below about 30%; also: 0% is about no effect; the text of the record puts the active cut at 80%
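Tetracycline-induced TRPML1-DL cells are seeded and incubated overnight before loading with a no-wash Ca2+ dye and quencher. Agonist activity is taken from the 110 s fluorescence read following compound pin-transfer on an FDSS, before EC80 54-4 challenge.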
PINK1 modulator: changes PINK1 expression; PINK1 immunofluorescence, high-content cytometry, 24 h; Potency, µM (top dose mostly 76.6 µM), without a hit: at the top dose activation (PINK1 increase), hits mostly activators; 0.2% of 410,000 active; active = well fitted activation curve with a large enough effect; inconclusive = small, poorly fitted or top-dose-only effect; inactive = flat fitted curve, though single readings scatter; cell line not stated here;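 also: potency is read from the fitted curve at half-maximal effect; % of control where 0% means no effect; nearly all actives have a fitted effect of over 65% in size; a mitochondrial uncoupler was the plate control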
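Stable cell line treated 24 h with compounds at 5 concentrations (CCCP controls), then fixed and immunostained for PINK1 plus nuclear and cell stains; PINK1 immunofluorescence quantified by laser-scanning microplate cytometry.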
D2 agonist: activates the human D2 dopamine receptor. DiscoveRx PathHunter D2 beta-arrestin, luminescence, 90 min; 100% = 57 uM dopamine signal. 0.084% of 360,000 active. P14416. AID 624465. activation, % (test concentration not listed); in the data active = activation above about 40%; inconclusive = about 15% to 40%; inactive = below about 15%; also: compound concentration not given in the record; the text of the record calls up to 30% inactive
Target sequence (P14416 whole entry, looked up): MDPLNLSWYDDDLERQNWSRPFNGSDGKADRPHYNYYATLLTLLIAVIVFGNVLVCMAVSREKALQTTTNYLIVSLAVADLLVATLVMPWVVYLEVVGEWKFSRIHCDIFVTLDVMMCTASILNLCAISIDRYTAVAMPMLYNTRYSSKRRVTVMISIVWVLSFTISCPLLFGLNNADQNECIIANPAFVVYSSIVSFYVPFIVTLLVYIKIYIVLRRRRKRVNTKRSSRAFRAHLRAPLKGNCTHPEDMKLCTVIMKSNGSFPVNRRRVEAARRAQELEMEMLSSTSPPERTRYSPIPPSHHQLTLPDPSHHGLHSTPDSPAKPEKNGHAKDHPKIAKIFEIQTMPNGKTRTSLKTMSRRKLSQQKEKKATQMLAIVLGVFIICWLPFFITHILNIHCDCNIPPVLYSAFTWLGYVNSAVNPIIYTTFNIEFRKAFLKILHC
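Agonist mode: compounds alone added to overnight-plated D2 PathHunter cells for 90 min at 37 C, with 57 uM final dopamine (EC100) defining full response. Beta-arrestin recruitment detected by chemiluminescent reagent, read after 1 h at ambient temperature.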
Active calls of the source: *; ? = inconclusive; / = not tested or not shown; & = joins results of further samples; [ ] = another dose, or the depositor's remark.

Values run as follows: CtBP-E1A inh	Six1-Eya2 inh	TRPML1 blocker	TRPML1 agonist	PINK1 modulator	D2 agonist
- O=C(NCc1ccc(OC(F)(F)F)cc1)c1cccc2c1C(=O)c1ccc(N3CCCCC3)cc1S2(=O)=O
→ 0	7	-10	3.6	11%	1.5
- COc1cccc(NC(=S)N2CCC(c3ccc(C)cc3)C2)c1 (configuration not stated)
→ -22	0	-8	2.1	-2.6%	0.3
- COc1ccc(C(=O)c2c(N)c(-c3nc(-c4ccc(OC)cc4)cs3)c3ccccn23)cc1
→ /	/	29	3.7	?	/
- COc1ccccc1-n1c(=O)c(C#N)c(-c2ccc([N+](=O)[O-])cc2)c2cc(C(=O)c3cc(F)ccc3O)cnc21
→ -10	4	14	0.1	1.8%	4.7
- O=C1C=C(c2cccs2)CC(c2cccs2)C1n1cnc([N+](=O)[O-])c1 (configuration not stated)
→ 3	7	-2	0.3	-3.0%	0.2
- CC1CC(C)(C)N(C(=O)CN2C(=O)c3ccccc3C2=O)c2ccccc21 (configuration not stated)
→ 5	1	-15	94*	/	-0.2
- CCOC(=O)N1CCN(Cc2nc3cc(NC(=O)CC(C)C)ccc3n2C)CC1
→ /	2	8	-0.6	0.7%	3.3
- Cc1ccc(NC(=O)C2CCCN(S(=O)(=O)c3c(C)noc3C)C2)c(C)c1 (configuration not stated)
→ 6	-1	-18	-0.1	-0.3%	-4.1
- Fc1ccccc1Cn1c(-c2ccccc2)nc2ccccc21
→ /	/	11	3.0	-0.3%	/
- CSc1ccc(C(=O)C2CCCN(Cc3ccc(N4CCNC4=O)cc3)C2)cc1 (configuration not stated)
→ 0	-9	28	0.3	6.2%	-1.3
- Cc1ccc(S(=O)(=O)Oc2ccccc2/C=N/Nc2ccc(C(=O)O)cc2)cc1
→ -2	-1	19	0.1	11%	-1.7
- Nc1cc(S(=O)(=O)Nc2ccc(Br)cc2)ccc1Cl
→ 0	1	2	0.6	11%	2.2
- Cc1ccccc1C(=O)NC1CCCN(Cc2ccccc2F)C1 (configuration not stated)
→ /	-8	-3	-0.2	-0.3%	-3.7
- Cc1ccc(N2CC(C(=O)Nc3nccs3)CC2=O)cc1Cl (configuration not stated)
→ -9	-13	-5	0.3	?	4.2
- CN(Cc1ccccc1)C(=O)C1CCN(S(=O)(=O)Cc2ccccc2)CC1
→ /	/	15	1.3	2.2%	/
- Cn1cc(CNCc2ccccc2OCC(O)CN2CCc3ccccc3C2)cn1 (configuration not stated)
→ 21	22	-13	-0.5	1.0%	-5.4
- Cc1cc(C(=O)N2CCN(Cc3ccccc3)CC2)on1
→ 2	4	15	0.0	-0.2%	-4.5
- CSc1ccc(S(=O)(=O)NCCOc2ccccc2C)cc1
→ 6	8	1	2.8	2.6%[38.3 µM]	-0.7
- CC1CCCCC12NC(=O)N(CC(=O)OCC(=O)NCc1ccc(F)cc1)C2=O (configuration not stated)
→ 9	0	6	-0.3	-1.4%	1.9
- COc1cccc(-c2c(C(=O)N/N=C/c3ccoc3)nnn2-c2nonc2N)c1
→ -2	-7	0	0.7	1.7%	-3.6
- CSCCC(NC(=O)COc1ccccc1)C(=O)OC(C)C(=O)Nc1ccccc1C (configuration not stated)
→ -22	-6	-7	0.7	-0.5%	1.8
- CN1COc2ccc3ccccc3c2C1
→ 0	6	-7	0.3	4.7%	1.0
- CC(C)OCCCN1CN(S(=O)(=O)c2ccccc2)c2nc3ccccc3nc21
→ 2	-5	-8	-0.3	0.3%	3.6
- COC(=O)Nc1ccc2c(c1)N(C(=O)CCN(C)C)c1ccccc1CC2
→ 0	2	-10	2.0	0.8%	-3.8
- CC(=O)C1=C(C)N(Cc2ccccc2)C(=O)N[C@H]1CCc1ccccc1
→ /	-9	-6	0.6	0.5%	0.2
- COc1ccc(NC(=O)C2Cc3c(-c4cccc(F)c4)ccnc3O2)cn1 (configuration not stated)
→ -1	3	/	-0.9	9.6%	-2.9
- COc1ccc(-c2cc(=O)c3cc(OC)ccc3[nH]2)cc1
→ 10	2	5	0.5	3.3%	-3.1
- Cc1ccc(OCC(=O)NCCNC(=O)c2cnccn2)cc1C
→ 5	-7	-19	1.0	5.7%	-8.2
- Cc1cc(C)cc(NC(=S)N2CCN(Cc3ccccc3)CC2)c1
→ -2	-9	-4	-0.3	?	-4.6
- CCCc1nnc(NC(=O)CN2C(=O)c3ccccc3S2(=O)=O)s1
→ 2	1	-5	0.2	-1.9%	-1.6

Sorted by molecular weight (low to high): part of the list above
Values run as follows: CtBP-E1A inh	Six1-Eya2 inh	TRPML1 blocker	TRPML1 agonist	PINK1 modulator	D2 agonist
- COc1ccc(NC(=O)C2Cc3c(-c4cccc(F)c4)ccnc3O2)cn1 (configuration not stated)
→ -1	3	/	-0.9	9.6%	-2.9
- CC1CCCCC12NC(=O)N(CC(=O)OCC(=O)NCc1ccc(F)cc1)C2=O (configuration not stated)
→ 9	0	6	-0.3	-1.4%	1.9
- CC(C)OCCCN1CN(S(=O)(=O)c2ccccc2)c2nc3ccccc3nc21
→ 2	-5	-8	-0.3	0.3%	3.6

The main list resumes, starting five compounds before the break.
Values run as follows: CtBP-E1A inh	Six1-Eya2 inh	TRPML1 blocker	TRPML1 agonist	PINK1 modulator	D2 agonist
- COc1ccc(NC(=O)C2Cc3c(-c4cccc(F)c4)ccnc3O2)cn1 (configuration not stated)
→ -1	3	/	-0.9	9.6%	-2.9
- COc1ccc(-c2cc(=O)c3cc(OC)ccc3[nH]2)cc1
→ 10	2	5	0.5	3.3%	-3.1
- Cc1ccc(OCC(=O)NCCNC(=O)c2cnccn2)cc1C
→ 5	-7	-19	1.0	5.7%	-8.2
- Cc1cc(C)cc(NC(=S)N2CCN(Cc3ccccc3)CC2)c1
→ -2	-9	-4	-0.3	?	-4.6
- CCCc1nnc(NC(=O)CN2C(=O)c3ccccc3S2(=O)=O)s1
→ 2	1	-5	0.2	-1.9%	-1.6
- Cc1ccc(CNCc2cc(Cl)ccc2O)cc1
→ 4	8	14	2.1	5.1%	-10
- Cc1ccc(NC(=O)Nc2ncnc3nc[nH]c23)cc1
→ 0	-4	16	0.4	-0.6%	2.0
- Cn1cc(CC(=O)NCCCN2CCCC2=O)c2ccccc21
→ -25	7	11	0.0	0.8%	-6.4
- CNS(=O)(=O)c1cccc(C(=O)NCC(c2cccs2)N(C)C)c1 (configuration not stated)
→ -2	2	-5	-0.3	-4.6%	1.8
- COC(=O)c1cn(C(=O)c2ccc(C)cc2C)c2ccccc12
→ -1	19	-4	1.9	28%	1.0
- CCCCNC(=O)CCn1nc(-c2ccc(Cl)cc2)c2ccccc2c1=O
→ -15	-8	7&13	1.2&0.1	0.8%&2.0%	-3.4
- CCc1ccc(OC2(C)CCN(Cc3ccccc3OC(F)F)C2)cc1 (configuration not stated)
→ 21	17	-5	-0.3	?	-0.4
- CCC(C)NC(=O)c1ccccc1NC(=O)C1COc2ccccc2O1 (configuration not stated)
→ /	1	-10	1.0	4.2%	-2.6
- Cc1cc(C)cc(NS(=O)(=O)c2cc3[nH]c(=O)c(=O)[nH]c3cc2C)c1
→ -1	3	-11&-1	0.0&2.5	0.5%&1.9%	2.4
- COc1ccc(C2CC(c3cccs3)=NN2C(=O)CSc2nc3ccccc3o2)cc1 (configuration not stated)
→ -18	-14	-5	1.4	-0.8%	-2.4
- N=c1n(Cc2ccccc2)c2ccccc2n1Cc1ccccc1
→ 4	6	4	0.4	-3.7%	-0.9
- COc1nn(CC(=O)N2N=C(C)CC2(O)C(F)F)cc1[N+](=O)[O-] (configuration not stated)
→ 6	-1	10	-0.4	1.3%	-1.2
- Cc1ccc(Nc2n[nH]c(=S)s2)cc1
→ -27	-5	16	-0.3	3.4%	8.2
- Cc1nc(-c2ccccn2)sc1C(=O)Nc1ccc(F)cc1F
→ 1	3	2	-0.3	8.5%	-4.1
- CC(=O)c1c(C)n(S(=O)(=O)c2ccc(Cl)cc2)c2ccc(NS(=O)(=O)c3ccc(Cl)cc3)cc12
→ /	/	10	0.8	0.9%	/
- O=C(Nc1ccccc1)c1ccc(CSc2ncccn2)cc1
→ 11	5	8	-1.1	-1.8%	-0.9
- Cc1ccc(C(=O)N[C@H](C(=O)N2CCN(c3ncccn3)CC2)C(C)C)cc1
→ -5	-6	1	-0.8	2.4%	-1.1
- O=C(CSc1nc(=O)[nH]c2c1CCC2)NCc1ccc(F)cc1
→ /	/	-16	-1.2	0.7%	/
- CCOC(=O)c1ccc(NC(=S)NNC(=O)C2(C)CC2(Cl)Cl)cc1 (configuration not stated)
→ 2	-1	22	-0.4	1.2%	-4.7
- COc1cc(/C=C/C(=O)OCC(=O)Nc2cccc(F)c2)ccc1O
→ 10	-4	6	-0.2	0.9%	2.0
- Cc1cc(C)nc(NS(=O)(=O)c2ccc(NC(=O)CCN3C(=O)c4ccccc4C3=O)cc2)n1
→ -6	0	-3	-0.6	-4.9%[38.3 µM]	0.7
- COC(=O)c1ccccc1NC(=O)c1cc2nc(-c3ccccc3)cc(-c3ccccc3)n2n1
→ /	/	-9	1.8	1.4%	/
- COc1cccc(CNc2ccc3c(c2)ncn3C)c1OC
→ -1	4	6&-1	-0.2&-0.7	-0.7%&0.2%	3.0
- Cc1sc2ncnc(N3CCC(C(=O)Nc4ccc(OC(F)F)c(Cl)c4)CC3)c2c1C
→ /	-10	31	-0.8	27%	3.5
- CCC(C)c1ccccc1NC(=O)c1cc(C)no1 (configuration not stated)
→ -5	-18	-7	1.1	-2.6%	-6.2
- COc1ccc(C(=O)N2CCSC2=S)cc1OC
→ 21	7	45	-0.5	1.7%	0.2
- CCCC(c1nnnn1Cc1ccc(OC)cc1)N1CCN(c2ccccc2)CC1 (configuration not stated)
→ 41	16	-3	0.6	3.2%	?
- O=C(CCNS(=O)(=O)c1ccccc1)NNC(=O)c1cccc(Cl)c1
→ -3	7	-12	0.0	-0.7%	-4.7
- COC(=O)c1ccc(OCC(=O)N2CCCc3ccccc32)cc1
→ 0	7	8	-0.5	-0.8%	-3.6
- O=C(Nc1ccccc1C(=O)Nc1ccccc1)c1cccs1
→ 5	-5	21	2.8	8.3%	1.5
- CC(C)(C)c1cccc(P(=O)(c2ccccc2)c2ccccc2)c1O
→ 1	-1	1	1.7	2.2%	-3.4
- COc1ccc(-c2nc(SCC(=O)NC3CCCC3)c(-c3ccc(F)cc3)[nH]2)cc1OC
→ /	/	-6	-0.1	0.4%	/
- CC1CCCCN1CCCn1c(=S)[nH]c2ccccc2c1=O (configuration not stated)
→ 17	-20	17	0.0	0.5%	-4.2
- Clc1ccc2nnnc(-c3ccccc3)c2c1
→ -23	-12	-3	-0.4	-3.6%	-0.8
- CCCn1c(N2CCN(C(=O)NCc3ccccc3)CC2)nc2ccccc21
→ -25	?	-3	1.8	0.7%	-1.3
- Cc1c(C)n(C(=O)CSc2nncn2C)c2ccccc12
→ -9	-12	31	-1.2	0.0%	-3.7
- Cc1c(C(=O)N(C)CCc2cnn(C)c2)oc2c(F)cccc12
→ 0	-1	45	1.1	-0.6%	3.3
- CC(c1ccco1)N(C(=O)c1cccc(S(=O)(=O)N(C)C)c1)c1ccccn1 (configuration not stated)
→ -3	4	-11	-0.6	-0.1%	-1.8
- O=C(CNCc1ccccc1)NCCCN1CCCC1=O
→ 2	-1	17	-0.1	-0.7%	-1.3
